Compound activity deposited in PubChem by several laboratories.
HIV Env fusion = HIV envelope-mediated fusion inhibition; HeLa-JRFL Env/CEM21 cell fusion, luciferase; inhibition, % at 12.3 µM; 360,000 tested, 1.1% active; AID 651610;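 active = mean replicate inhibition score of at least 50 and every replicate individually at or above 50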;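 note: 0% = plate neutral controls and 100% = maraviroc near 300 nM; one replicate is shown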
eIF4H inh = inhibitors of RNA binding by human eIF4H; Q15056; eIF4H fluorescence polarization binding assay; inhibition, % at 35 µM; 290,000 tested, 0.94% active; AID 2012;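 active = 50% or more with normal probe brightness, or confirmed in later tests; about a fifth of its hits are not listed in these tables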;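 note: calls also rest on retests at 20 µM and on dose response follow-up; 0% = protein and probe with vehicle and 100% = probe without protein; strong numbers were not always called active; many hits fall short of the cut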
MT1-MMP act inh = MT1-MMP (human) activation inhibition; 360,000 tested, 0.061% active; AID 651647; HT1080 RFP-PRO-GFP cells, GFP/RFP ratio fluorescence, overnight; percent of plate control window, DMSO zero; GFP/RFP ratio change, % at 20 µM;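 active = GFP/RFP ratio change of at least 30% with cell ATP level not reduced by more than half and red fluorescence within 50% of control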; note: strong numbers were not always called active
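system = RFP-PRO-GFP reporter HT1080 cells | dosing = 20 µM single dose, 1% DMSO | timing = overnight cell settling, then overnight compound exposure, 37 °C, 5% CO2 | read-out basis = GFP/RFP fluorescence ratio | controls = DMSO and RFP-L50D-GFP cell wells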
Yeast UUG start = modulators of start codon recognition fidelity in yeast | S. cerevisiae UUG-firefly luciferase reporter, luminescence/redox ratio | activity score, % at 18.7 µM | 350,000 tested, 0.13% active | AID 602363;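 active = replicate mean at a twofold rise or more, about +100% in these data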;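 note: firefly luciferase made from a UUG start codon reports start codon fidelity; reporter light over untreated wells divided by growth signal over untreated wells; some hits fall short of that in this replicate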
Rce1 inh = yeast Ras-converting enzyme inhibition. Q03530. yeast membranes, quenched prenylated peptide cleavage fluorescence. calls only. 290,000 tested, 0.27% active. AID 2563;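 active = fall in fluorescence gain of 50% or more versus controls, with final raw signal at or below 3038400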;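 note: plate controls were neutral control wells for no effect and wells lacking membranes for full effect; tested at 10 µM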
Target sequence (Q03530 whole entry, looked up): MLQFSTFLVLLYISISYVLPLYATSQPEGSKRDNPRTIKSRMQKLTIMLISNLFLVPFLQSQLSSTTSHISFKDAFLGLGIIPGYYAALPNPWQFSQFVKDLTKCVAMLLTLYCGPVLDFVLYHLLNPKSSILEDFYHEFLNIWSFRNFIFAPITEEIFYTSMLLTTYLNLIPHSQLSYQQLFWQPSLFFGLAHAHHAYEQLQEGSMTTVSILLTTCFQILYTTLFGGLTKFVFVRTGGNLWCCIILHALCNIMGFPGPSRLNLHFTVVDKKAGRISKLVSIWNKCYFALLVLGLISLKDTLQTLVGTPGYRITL
PABP polyA inh = blocks human PABP binding to poly(A) RNA; inhibition, % at 35 µM; 290,000 tested, 1% active; AID 2014; fluorescence polarization; P11940;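 active = 50% or more with normal probe brightness, or confirmed in later tests; about a fifth of its hits are not listed in these tables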;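 note: calls also rest on retests at 20 µM and on dose response follow-up; controls were probe without protein and protein plus probe with vehicle; some compounds called inactive have numbers as strong as hits; many hits fall short of the cut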
Target sequence (P11940 whole entry, looked up): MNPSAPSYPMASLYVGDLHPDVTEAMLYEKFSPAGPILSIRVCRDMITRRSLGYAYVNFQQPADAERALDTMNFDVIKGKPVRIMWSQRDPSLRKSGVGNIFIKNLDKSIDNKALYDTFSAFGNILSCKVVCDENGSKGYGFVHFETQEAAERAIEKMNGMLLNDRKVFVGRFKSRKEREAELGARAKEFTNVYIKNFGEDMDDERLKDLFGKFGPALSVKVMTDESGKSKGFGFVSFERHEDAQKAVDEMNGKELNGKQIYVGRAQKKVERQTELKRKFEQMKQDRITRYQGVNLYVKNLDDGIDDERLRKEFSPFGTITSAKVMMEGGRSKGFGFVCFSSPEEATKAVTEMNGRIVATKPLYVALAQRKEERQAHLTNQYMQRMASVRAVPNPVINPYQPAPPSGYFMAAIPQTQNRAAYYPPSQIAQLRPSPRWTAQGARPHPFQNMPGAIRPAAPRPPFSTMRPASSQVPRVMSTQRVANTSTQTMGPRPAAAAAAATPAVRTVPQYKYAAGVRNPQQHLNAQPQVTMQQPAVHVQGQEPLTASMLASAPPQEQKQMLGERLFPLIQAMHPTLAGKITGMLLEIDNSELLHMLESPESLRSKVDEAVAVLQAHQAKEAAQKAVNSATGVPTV
CSC inhib = cancer stem cell inhibition. cancer stem cell-like cells viability, luminescence. 300,000 tested, 1.1% active. inhibition, % at 7.5 µM;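 active = mean at 75% or more and at least half the replicates too; tested in HMLE shEcad cells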;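 note: 0% = median of negative and 100% = median of positive control wells; the first replicate is given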
MT1-MMP act inh RFP = further read-out of MT1-MMP act inh, marked with its call; RFP signal change, %; measured here: RFP expression control read;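 0 = vehicle wells; hits needed this value within 50% of zero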
* = called active by the depositor; & = joins results of further samples; [ ] = remark or other dose. An excerpt; count on the stated rates, not on these rows.

Screening CCOC(=O)c1cc(C(=O)Nc2sc3c(c2C#N)CCCC3)nn1C returned HIV Env fusion -6, eIF4H inh 9, MT1-MMP act inh -1, Yeast UUG start -13, Rce1 inh inactive, PABP polyA inh -1, CSC inhib 14 and MT1-MMP act inh RFP 2.
Screening Cc1nnc(Sc2nc3c(c(=O)[nH]c(=O)n3C)n2Cc2ccccc2)s1 returned HIV Env fusion -46, eIF4H inh 0, MT1-MMP act inh 4, Yeast UUG start -4, Rce1 inh inactive, PABP polyA inh 4, CSC inhib 6 and MT1-MMP act inh RFP 5.
Screening O=C(c1ccc(S(=O)(=O)N2CCCCC2)cc1)N1CCN=C1SCc1cccnc1 returned HIV Env fusion -1, eIF4H inh -14, MT1-MMP act inh 1, Yeast UUG start -16, PABP polyA inh 3 and MT1-MMP act inh RFP -15.
`O=C(O)CCC(=O)NNC(=O)COc1cccc(Cl)c1` gave HIV Env fusion 12, eIF4H inh -10, MT1-MMP act inh 2, Rce1 inh inactive, PABP polyA inh -3, CSC inhib -9 and MT1-MMP act inh RFP 3.
Screening O=C(OCC(=O)N1CCN(C(=O)c2ccco2)CC1)c1ccccc1OCc1ccc(Cl)cc1 returned eIF4H inh 3, MT1-MMP act inh 1, Yeast UUG start -1, Rce1 inh inactive, PABP polyA inh -3, CSC inhib -2 and MT1-MMP act inh RFP -3.
`COC(=O)/C=c1\[nH]c2nnc(C)n2c1=O` gave HIV Env fusion 11, eIF4H inh -7, MT1-MMP act inh 6, Rce1 inh active, PABP polyA inh 2, CSC inhib -17 and MT1-MMP act inh RFP 4.
Screening CC(C)(C)OC(=O)C(C)(C)O/N=C(\C(=O)O)c1csc(N)n1 returned HIV Env fusion -5, eIF4H inh -4, MT1-MMP act inh 5, Rce1 inh inactive, PABP polyA inh -3, CSC inhib -17 and MT1-MMP act inh RFP 4.
For Cc1cccc(-n2nnnc2SCC(=O)NCC2CCCO2)c1 (stereo not drawn) the results were HIV Env fusion 3, eIF4H inh -9, MT1-MMP act inh -3, Yeast UUG start -16, Rce1 inh inactive, PABP polyA inh -12, CSC inhib -9 and MT1-MMP act inh RFP 1.
For O=C(Nc1ccc2c(c1)OCO2)C1Cc2c(-c3ccc(Cl)cc3)ccnc2O1 (stereo not drawn) the results were HIV Env fusion -48, MT1-MMP act inh -2, Yeast UUG start -9 and MT1-MMP act inh RFP -19.
Cn1c(N)c(C(=O)COC(=O)C2CC(=O)N(Cc3ccccc3)C2)c(=O)n(C)c1=O (stereo not drawn) was read as HIV Env fusion 1, eIF4H inh -4, MT1-MMP act inh 5, Yeast UUG start -11, Rce1 inh inactive, PABP polyA inh 28, CSC inhib -12 and MT1-MMP act inh RFP 11.

Two compounds drawn at random from the list so far:
For O=C(Nc1ccc2c(c1)OCO2)C1Cc2c(-c3ccc(Cl)cc3)ccnc2O1 (stereo not drawn) the results were HIV Env fusion -48, MT1-MMP act inh -2, Yeast UUG start -9 and MT1-MMP act inh RFP -19.
`O=C(O)CCC(=O)NNC(=O)COc1cccc(Cl)c1` gave HIV Env fusion 12, eIF4H inh -10, MT1-MMP act inh 2, Rce1 inh inactive, PABP polyA inh -3, CSC inhib -9 and MT1-MMP act inh RFP 3.

(listing goes on)
CC1CCCN(C(=O)c2nn(C)c3c2CSc2ccccc2-3)C1 (stereo not drawn) was read as HIV Env fusion -8, eIF4H inh -12, MT1-MMP act inh -2, Yeast UUG start 9, Rce1 inh inactive, PABP polyA inh 3, CSC inhib -10 and MT1-MMP act inh RFP 1.
For COc1ccc(NS(=O)(=O)c2cccc(C(=O)NNC(=O)CNC(=O)c3ccccc3F)c2)cc1 the results were MT1-MMP act inh 3, Yeast UUG start -5, Rce1 inh inactive, CSC inhib -7 and MT1-MMP act inh RFP 1.
Screening Cc1ccc(-n2c3c(cc(C(=O)NC4CCSC4=O)c2=O)C(=O)CCC3)cc1 (stereo not drawn) returned HIV Env fusion -79, eIF4H inh 5, MT1-MMP act inh -2, Yeast UUG start 1, PABP polyA inh 0, CSC inhib -8 and MT1-MMP act inh RFP 6.
Screening O=C(Oc1c(Cl)cc(Cl)c2cccnc12)c1cccs1 returned HIV Env fusion 52, eIF4H inh 17, MT1-MMP act inh 19, Yeast UUG start -13, Rce1 inh inactive, PABP polyA inh -13, CSC inhib 121* and MT1-MMP act inh RFP 11.
`CCC(=O)N=c1sc2cc([N+](=O)[O-])ccc2n1CCOC` gave eIF4H inh 3, MT1-MMP act inh 0, Rce1 inh inactive, PABP polyA inh 18, CSC inhib -19 and MT1-MMP act inh RFP -4.
`CCOc1ccc(CCNC(=O)c2ccc(CS(=O)Cc3cccc(Cl)c3)o2)cc1` (stereo not drawn) gave HIV Env fusion 10, eIF4H inh -8, MT1-MMP act inh 3, Yeast UUG start 8, Rce1 inh inactive, PABP polyA inh -2, CSC inhib -3 and MT1-MMP act inh RFP -4.
Screening Cc1cccc(NC(=O)CSc2ccc(-c3ccc4c(c3)OCO4)nn2)c1C returned eIF4H inh 3, MT1-MMP act inh 0, Yeast UUG start -18, Rce1 inh inactive, PABP polyA inh 0, CSC inhib -4 and MT1-MMP act inh RFP 5.
Screening CCOC(=O)CNC(=O)c1c(C)nn(-c2ccccc2)c1Cl returned HIV Env fusion -75, eIF4H inh -3, MT1-MMP act inh -1, Yeast UUG start -14, Rce1 inh inactive, PABP polyA inh 0, CSC inhib 0 and MT1-MMP act inh RFP 4.
Screening Fc1ccc(NC(=S)NCCN2CCOCC2)c(F)c1F returned HIV Env fusion 0, eIF4H inh -1, MT1-MMP act inh 3, Rce1 inh inactive, PABP polyA inh -3, CSC inhib -1 and MT1-MMP act inh RFP 2.
CCCCNc1c(-c2ccc(SC(C)CC)cc2)nc2ccccn12 (stereo not drawn) was read as HIV Env fusion -29&-82, MT1-MMP act inh 10&12, Yeast UUG start -69, Rce1 inh inactive, CSC inhib 92* and MT1-MMP act inh RFP -13&-7.
For Cc1ccc(C(=O)N/C(=C\c2cn(C)c3ccccc23)C(=O)N2CCOCC2)cc1 the results were HIV Env fusion 3, eIF4H inh 15, MT1-MMP act inh -4, Yeast UUG start 4, Rce1 inh inactive, PABP polyA inh 5, CSC inhib -21 and MT1-MMP act inh RFP 0.
For CN(C)c1ccc(/C=N/NC(=O)c2ccc(NC(=O)c3ccccc3)cc2)cc1 the results were HIV Env fusion 10, eIF4H inh -14, MT1-MMP act inh 8, PABP polyA inh 3, CSC inhib 17 and MT1-MMP act inh RFP 3.
Screening CCN(CC)C(=O)C1=C(C)N(CCCN2CCCC2=O)C(=O)C(CC(=O)NCc2cccc3ccccc23)C1 (stereo not drawn) returned HIV Env fusion 14, MT1-MMP act inh -2, Yeast UUG start 18 and MT1-MMP act inh RFP 1.
`C#Cc1ccc([C@H]2C=C(C(=O)OCC=C)O[C@@H](OCC)[C@@H]2CCCO)cc1` gave HIV Env fusion 3[16.7 µM], eIF4H inh 7, MT1-MMP act inh -4, Yeast UUG start 4&-18, Rce1 inh inactive, PABP polyA inh 3, CSC inhib -1 and MT1-MMP act inh RFP -6.
COc1cc(C(=O)N/N=C/c2ccc(OC(=O)c3cccc(C)c3)cc2)ccc1O was read as eIF4H inh 1, MT1-MMP act inh 2, Yeast UUG start -6, Rce1 inh inactive, PABP polyA inh -7, CSC inhib -5 and MT1-MMP act inh RFP 4.
Cc1ccccc1NC(=O)Cc1nc(COC(=O)Cc2c(F)cccc2Cl)cs1 was read as MT1-MMP act inh 1, Yeast UUG start -5, CSC inhib -19 and MT1-MMP act inh RFP 1.
Screening COc1cc(NC(=O)c2ccc(C)cc2C)ccc1NC(=O)c1cccs1 returned HIV Env fusion -71, eIF4H inh 3, MT1-MMP act inh 2, Yeast UUG start -13, Rce1 inh inactive, PABP polyA inh 5, CSC inhib -53 and MT1-MMP act inh RFP 4.
For CC(OC(=O)c1ccc(Cl)c(S(=O)(=O)N2CCc3ccccc32)c1)C(=O)Nc1ncc(Cl)cc1Cl (stereo not drawn) the results were HIV Env fusion 20, eIF4H inh -5, MT1-MMP act inh 1, Yeast UUG start -29, Rce1 inh inactive, PABP polyA inh -10, CSC inhib 1 and MT1-MMP act inh RFP 4.
`O=C(CSc1nc(-c2ccccc2)cs1)Nc1nccs1` gave HIV Env fusion -48, eIF4H inh -4, MT1-MMP act inh 2, Rce1 inh inactive, PABP polyA inh 4, CSC inhib 8 and MT1-MMP act inh RFP 5.
Cc1ccccc1C(=O)NCC(=O)OCC(=O)NNC(=O)c1ccccc1F was read as HIV Env fusion -6, MT1-MMP act inh 1, Yeast UUG start -14 and MT1-MMP act inh RFP 4.
For CCCCCCn1c(=O)c(-c2ccccc2)c(O)c2ccccc21 the results were eIF4H inh -2, MT1-MMP act inh -2, Yeast UUG start -5, Rce1 inh inactive, PABP polyA inh 0, CSC inhib -8 and MT1-MMP act inh RFP -2.
C#CCN1C=C(C(=O)OCC)C(C)N(Cc2ccccc2I)S1(=O)=O (stereo not drawn) was read as HIV Env fusion 27, MT1-MMP act inh -6, Yeast UUG start 9 and MT1-MMP act inh RFP -15.
`O=C1CCCN1C(=O)CSc1nnnn1-c1cccc(F)c1` gave HIV Env fusion -5, MT1-MMP act inh 2, CSC inhib -6 and MT1-MMP act inh RFP 1.
For Cc1cc(Nc2ccc(Cl)cc2)n2nnnc2n1 the results were eIF4H inh -4, MT1-MMP act inh 7, Yeast UUG start -18, Rce1 inh inactive, PABP polyA inh -1, CSC inhib 1 and MT1-MMP act inh RFP 5.
For COc1nc(Nc2ccc(OC)c(Cl)c2)nc(OC)n1 the results were eIF4H inh 8, MT1-MMP act inh 1, Yeast UUG start -6, Rce1 inh inactive, PABP polyA inh 8, CSC inhib -9 and MT1-MMP act inh RFP 1.
Screening C=CCN1C(=O)CN=C1Nc1cccc(C)c1 returned HIV Env fusion -67, eIF4H inh -8, MT1-MMP act inh -4, Yeast UUG start -3, Rce1 inh inactive, PABP polyA inh 2, CSC inhib -7 and MT1-MMP act inh RFP 3.
COc1ccc(NC2c3ccccc3C(=O)N2c2cccnc2)cc1 (stereo not drawn) was read as HIV Env fusion -17, eIF4H inh 5, MT1-MMP act inh -2, Yeast UUG start -13, Rce1 inh inactive, PABP polyA inh 0, CSC inhib -5 and MT1-MMP act inh RFP 1.
`COc1ccc(N2CCC(CNS(=O)(=O)c3cccc(C(F)(F)F)c3)C2)cc1` (stereo not drawn) gave eIF4H inh 4, MT1-MMP act inh 17, Yeast UUG start -4, Rce1 inh inactive, PABP polyA inh 10, CSC inhib 7 and MT1-MMP act inh RFP 2.
CCN(Cc1ccncc1)C(=O)c1cccc(S(=O)(=O)N2CCOCC2)c1 was read as eIF4H inh -3, MT1-MMP act inh 4, Yeast UUG start -13, Rce1 inh inactive, PABP polyA inh -7, CSC inhib -9 and MT1-MMP act inh RFP 0.
`COc1ccccc1-c1cc(C(=O)N2CCN(S(=O)(=O)c3ccc(C)cc3)CC2)[nH]n1` gave HIV Env fusion -21, eIF4H inh -14, MT1-MMP act inh 4, Yeast UUG start -8, Rce1 inh inactive, PABP polyA inh 0 and MT1-MMP act inh RFP -9.
`CC1=C2C(CCS2(=O)=O)CC2(C1)C(=O)OC(C)(C)OC2=O` (stereo not drawn) gave HIV Env fusion -89, eIF4H inh 12, MT1-MMP act inh -2, Yeast UUG start -21, Rce1 inh inactive, PABP polyA inh 11, CSC inhib -21 and MT1-MMP act inh RFP -3.
O=C(Nc1nc(-c2cccnc2)cs1)c1ccccc1[N+](=O)[O-] was read as HIV Env fusion 7, eIF4H inh -9, MT1-MMP act inh 5, Yeast UUG start -4, Rce1 inh inactive, PABP polyA inh 8, CSC inhib -2 and MT1-MMP act inh RFP 3.
O=C(COC(=O)c1ccncc1)c1ccc(Cl)c(Cl)c1 was read as HIV Env fusion 14, eIF4H inh -1, MT1-MMP act inh -8, Yeast UUG start 14, Rce1 inh inactive, PABP polyA inh 0, CSC inhib -5 and MT1-MMP act inh RFP -3.
